Sm TGR block: blocks Schistosoma mansoni thioredoxin glutathione reductase; purified TGR, DTNB reduction, TNB absorbance 405 nm; Potency, µM (series often up to 114 µM), for inactives: top-dose activity change, negative = inhibition, actives largely listed as inhibitors; 3% of 360,000 active; note: nearly all actives have a fitted effect of over 60% in size
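TGR 20 nM + NADPH 100 uM (dispensed conc.), cpd preinc 15 min RT; start with NADPH (500 uM addition) then DTNB (15 mM addition). Kinetic TNB absorbance, 405 nm filter. Four-parameter Hill fit across titration.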
Tb PYK inh: blocks Trypanosoma brucei pyruvate kinase | Q57TT1 | TbPYK enzyme, Kinase-Glo Plus ATP luminescence, 45 min | Potency, µM (top dose mostly 76.8 µM), without a hit: at the highest dose activity, negative = inhibition, hits mostly inhibitors | 0.12% of 410,000 active | AID 624173; note: nearly all actives have a fitted effect of over 50% in size
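Readout: single end-point luminescence (Kinase-Glo Plus, 10 min). Reaction conditions were TbPYK/substrate plus 130 uM ADP, 45 min at RT, pH 7.2 TEA buffer. No-enzyme wells served as controls, and data were normalized before concentration-response fitting.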
AmpC no deterg: AmpC beta-lactamase inhibition without detergent; 0.52% of 330,000 active; AmpC nitrocefin hydrolysis, absorbance 480 nm, 0.0001% Triton; Potency, µM (series often up to 57.1 µM), without a hit: at the highest dose activity change, negative = inhibition, usual class: inhibitors; P00811;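 note: plate controls were no compound for no effect and no enzyme for full effect; nearly all actives have a fitted effect of over 20% in size; some results filed as inactive show a strong effect at the top dose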
Target sequence (P00811 whole entry, looked up): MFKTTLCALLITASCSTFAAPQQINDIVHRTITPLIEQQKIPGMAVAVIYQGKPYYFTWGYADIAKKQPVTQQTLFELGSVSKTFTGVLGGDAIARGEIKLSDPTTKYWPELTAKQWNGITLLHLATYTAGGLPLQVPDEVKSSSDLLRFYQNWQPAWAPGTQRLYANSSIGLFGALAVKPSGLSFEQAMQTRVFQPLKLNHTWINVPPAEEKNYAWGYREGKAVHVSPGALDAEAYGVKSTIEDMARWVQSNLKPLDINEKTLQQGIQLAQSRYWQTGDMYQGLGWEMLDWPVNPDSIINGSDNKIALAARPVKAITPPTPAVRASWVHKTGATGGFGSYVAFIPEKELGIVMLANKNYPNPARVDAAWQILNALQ
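20 mM phosphate pH 7.0 + 0.01% (detergent screen) or 0.0001% Triton X-100; 5.3 nM AmpC reagent; cpd preinc 15 min RT; nitrocefin (800 uM stock) to start; A480 q20 s × 4 min; Activity was normalised to no-enzyme and no-compound control wells.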
AmpC inh detg: blocks E. coli AmpC beta-lactamase in detergent assay. Potency, µM (doses to about 114 µM), for inactives: at the top dose activity change, negative = inhibition, actives largely listed as inhibitors. AmpC hydrolysis of nitrocefin, absorbance 480 nm, 0.01% Triton. P00811. AID 485294. 0.041% of 370,000 active;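 note: 0% = no-compound wells and -100% = no-enzyme wells; nearly all actives have a fitted effect of over 25% in size; some results filed as inactive show a strong effect at the top dose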
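20 mM phosphate pH 7.0 + 0.01% (detergent screen) or 0.0001% Triton X-100; 5.3 nM AmpC reagent; cpd preinc 15 min RT; nitrocefin (800 uM stock) to start; A480 q20 s × 4 min; Activity was normalised to no-enzyme and no-compound control wells.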
Active calls of the source: *; ? = inconclusive; · = not tested or not shown; & = joins results of further samples; [ ] = remark or other dose. Calls come from the whole dose curve; as a rule, active = well fitted curve in the direction sought with a large enough effect; inconclusive = small, poorly fitted or top-dose-only effect, or another doubt; inactive = no such curve, though single readings can be large; an effect the other way counts as inactive or inconclusive. Unless noted, % is set by controls: 0 for no effect and ±100 for the full control effect; potency is the fitted concentration of half-maximal effect. Some of the compounds tested, so the mix of outcomes need not match the whole.

SMILES	Sm TGR block	Tb PYK inh	AmpC no deterg	AmpC inh detg
Nc1nonc1-n1nnc(C(=O)N/N=C/c2ccc(F)cc2)c1-c1cccs1	-7%	-2%	-41%	0%
COC(=O)c1sccc1NC(=O)Nc1cccc(C)c1	-4%	?	-38%	3%
CCN1CCN(CC(=O)Nc2nc3ccc(OC)cc3s2)CC1	-2%	4%	-8%	2%
COC(=O)c1ccc(NC(=O)Nc2ccccc2F)cc1	·	-16%	-18%	0%
CCC1CN(C(=O)N2CCC(C(=O)NCCc3ccccc3OC)CC2)c2ccccc2O1 (stereo unspecified)	1%	2%	140%[activator]	1%
CC(C)(C)c1ccc(-n2ncc3c2CCCC3NC(=O)CCN2CCCC2=O)cc1 (stereo unspecified)	-2%	0%	174%[activator]	2%
Cc1nn(-c2ccccc2)c(Cl)c1/C=N/NC(=O)c1ccncc1	0%	-9%	-7%	3%
COc1cccc(OC)c1OCCCCn1cnc2ccccc2c1=O	·	28%	52%	8%
Cc1ccc(-n2ncc(C(=O)N3CCN(c4ccccc4F)CC3)c2C2CCN(C(=O)OC(C)(C)C)CC2)cc1C	-8%	1%[15.4 µM]	·	3%
COC(=O)c1ccc(OC)c(CN2CCCN(Cc3ccc(C)cc3)S2(=O)=O)c1	41%[activator]	5%[15.4 µM]	·	-7%
Cc1ccccc1C(=O)N/N=C/c1ccc(Sc2ccccn2)o1	2%	-5%	-37%	-13%
CCOC(CNC(=O)CN1C(=O)COc2ccc(S(=O)(=O)N3CCOCC3)cc21)OCC	-1%	4%	3%	-4%
NC12CC3CC(CC(C3)C1)C2	-3%	7%&-5%	-38%	?
COC(=O)c1ccc(NC(=O)c2ccc(OC(C)=O)c(OC)c2)cc1	3%	0%	-2%[2.29 µM]	-9%
CC(C)[C@H](NC(=O)c1ccccc1)C(=O)Nc1cccc(S(=O)(=O)N2CCOCC2)c1	-13%	-3%	-11%	4%
C[C@@H]1CC=C[C@H]2[C@H]1C(=O)N(Cc1ccccc1)[C@H]2c1ccc(F)c(-c2ccc(N(C)C)cc2)c1	?	-3%	15%	-1%
CC1CCCCC12NC(=O)N(CC(=O)OCc1ccc(Br)cc1)C2=O (stereo unspecified)	-2%	0%	-14%	-9%
CN(C)C(=O)c1cccc(COc2ccc(N3C(N)=NC(N)=NC3(C)C)cc2Cl)c1	·	-6%	·	·
O=C(Nc1ccccc1)N1CCc2ccccc21	-7%	?	-22%	-14%
COc1cccc(N2CCN(CC(=O)Nc3ccc(-n4cnnn4)cc3)CC2)c1	0%	-4%	-15%	-4%
COc1cccc(C(=O)Nc2cc3c(cc2N2CCCC2)n(C)c(=O)n3C)c1	-19%	-20%	70%[activator]	-2%
O=C1NC(=S)SC1=Cc1ccccn1	·	-2%	·	·
COc1ccccc1C(=O)NNC(=S)NC(=O)c1ccco1	5%	-20%	-13%	6%
O=C(NCCN1CCOCC1)c1ccc2c(c1)N(Cc1ccccc1)C(=O)c1ccccc1S2	-10%	3%	158%[activator]	4%
CCN(Cc1ccccc1)c1ccc(/C=N/N2CCOCC2)cc1	-9%	0%	110%[activator]	-21%

The list continues:
SMILES	Sm TGR block	Tb PYK inh	AmpC no deterg	AmpC inh detg
CCOC(=O)c1c(C)oc2ccc(O)cc12	-10%	9%	-29%	-2%
CN[C@@H](C)[C@@H](O)c1ccccc1	-1%	-8%	-9%	-8%
CC(NC(=O)C(=O)N1CCCCC1)C(c1cccs1)N1CCN(c2ccccc2)CC1 (stereo unspecified)	0%	-22%	115%[activator]	?
Cc1cn([C@H]2C[C@H](N=[N+]=[N-])[C@H](CO)O2)c(=O)[nH]c1=O	·	-7%	·	·
COc1ccc(-c2cn3ccccc3n2)cc1OC	31%	-10%	-9%	-10%
COc1ccc2c(c1)c(CC(=O)O)c(C)n2C(=O)c1ccc(Cl)cc1	2%	0%&-10%	-30%	-3%

Bioassay records (PubChem)
